Screens as filed in PubChem.
Ecoli rRNA inh – inhibitors of bacterial rRNA selective over humanized ribosomes; E. coli WT GFP vs humanized-ribosome RFP mutants, fluorescence, 24 h; hits give low values; DMSO median 0, no signal -100; GFP signal change (wild-type ribosome), % (test concentration not listed); 1.6% of 350,000 active; AID 720706;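 active = significant combined selectivity score with lowered wild-type GFP, culture density cut under 30%, mutant RFP and density less affected; inactive = any of these conditions unmet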; also: one replicate is shown; some compounds called inactive have numbers as strong as hits
Beta apoptosis – blocks beta cell apoptosis; 0.8% of 300,000 active; INS-1E cytokine-induced death, ATP luminescence, 48 h; percent of positive-control rescue, neutral wells zero; protection from apoptosis, % (test concentration not listed);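 active = all replicates at 75% or more, or half of them and the mean; inconclusive = half reach 75% but not the mean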;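 also: 0% = cytokine-treated negative control wells and 100% = positive control rescue; higher means more ATP so stronger rescue from cytokine killing; wells of about 40 µL received 100 nL stock; the first replicate is given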
Bfl-1 A1 inh – inhibitors of the anti-apoptotic protein A1, read as caspase activation; MEF A1-2A-BIM cells, Caspase-Glo 3/7 luminescence, 3 h; percent of clofoctol response, vehicle zero; caspase activation, % (no concentration beside the values); 0.066% of 330,000 active; AID 2462;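 active = over half of replicate activation scores above 10%, or exactly half above 10 with the replicate mean above 10; inconclusive = replicate mean below 10 yet half the replicates above 10; inactive = over half of replicates below 10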;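 also: wells of about 30 µL received 50 nL stock; many hits fall short of the cut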
RanGTP-Impb inh – disruptors of Ran-importin-beta complex formation – biochemical, FRET, CFP-Ran, YFP-importin-beta, homogeneous, primary screen; inhibition, % (no concentration beside the values); 1.1% of 300,000 active; cell-free CFP-Ran/YFP-importin-beta FRET ratio;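 active = most replicates above 15%; inconclusive = exactly half above 15%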;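 also: 0% = DMSO wells and 100% = Ran loaded with GDP instead of GTP; wells of about 40 µL received 100 nL stock; the first replicate is given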
T cruzi inh – blocks replication of Trypanosoma cruzi. T. cruzi beta-gal in NIH3T3, luminescence, 90 h. inhibition, % (concentration not given with the values). 1.4% of 300,000 active. AID 1885;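 active = mean inhibition across valid replicates above about 55%, limit read from the data; inconclusive = mean below that limit but half or more replicates reach it; inactive = mean below it, under half of replicates reach it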;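 also: signal also drops with host cell toxicity which is not excluded here; 0% = plate median of DMSO wells and 100% = zero luminescence signal; higher percent means less beta-gal luminescence so fewer parasites; stock transfer was 50 nL into about 50 µL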
Calb FLC – affects C. albicans growth with fluconazole; C. albicans CaCi-2 (fluconazole-resistant clinical isolate) + fluconazole, Alamar Blue growth, 48 h; growth inhibition, % (no concentration beside the values); 0.57% of 300,000 active;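 active = most replicates above 75%; inconclusive = exactly half above 75%; inactive = most below 75%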;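 also: all wells also contain fluconazole at 8 µg/ml as a sub-toxic cotreatment; 0% = median of DMSO wells and 100% = median of geldanamycin control wells; wells of about 8 µL received 7.5 nL stock; the first replicate is given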
MLL AF4-AF9 inh – inhibitors of human MLL-AF4/AF9 interaction; P42568; AlphaScreen, biotin-AF4 peptide binding to FLAG-AF9; inhibition, % at 10 µM; 0.47% of 350,000 active; AID 651704;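 active = every replicate reaching a set inhibition limit, whatever the replicate mean, cut at about 25% in these data; inconclusive = mean inhibition reaches that limit but some replicates miss it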;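 also: 0% = plate neutral control median and 100% = total signal loss; the record names both 10 and 1 µM as test concentration; the first replicate is given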
Target sequence (P42568 whole entry, looked up): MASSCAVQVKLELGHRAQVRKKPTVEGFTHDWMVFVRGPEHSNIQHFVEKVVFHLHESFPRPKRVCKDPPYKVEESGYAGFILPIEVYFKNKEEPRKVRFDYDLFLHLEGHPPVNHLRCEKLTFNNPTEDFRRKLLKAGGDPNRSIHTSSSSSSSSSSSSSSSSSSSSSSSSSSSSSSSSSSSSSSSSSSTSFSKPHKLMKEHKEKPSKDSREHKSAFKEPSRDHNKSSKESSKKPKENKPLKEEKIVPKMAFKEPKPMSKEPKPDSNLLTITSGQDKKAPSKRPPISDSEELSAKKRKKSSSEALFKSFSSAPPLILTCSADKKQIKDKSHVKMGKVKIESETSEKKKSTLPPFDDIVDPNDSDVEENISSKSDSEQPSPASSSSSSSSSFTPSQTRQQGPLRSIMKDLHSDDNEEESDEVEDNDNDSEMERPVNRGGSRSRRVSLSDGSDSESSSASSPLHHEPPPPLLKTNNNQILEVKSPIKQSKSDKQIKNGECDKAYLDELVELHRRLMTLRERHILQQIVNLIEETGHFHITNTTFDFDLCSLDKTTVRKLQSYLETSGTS
Vif A3G – HIV-1 Vif–A3G interaction blockers – biochemical, TR-FRET, GST-Vif 1-94, biotin-A3G peptide, dose response retest, primary screen (AID 1117319) | TR-FRET GST-Vif / biotin-A3G peptide binding; higher % means a stronger effect; test concentration not given here; strong numbers were not always called active | inhibition, %; hits with a dose series show IC50 in µM | 0.57% of 260,000 active;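 active = above the screen mean plus three standard deviations and confirmed in dose response; inconclusive = results disagree or hit not tested in dose response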;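 also: Vif residues 1-94 fused to GST binding biotinylated APOBEC3G peptide 110-148; 0% = full assay without inhibitor and 100% = GST in place of GST-Vif; retest series ran down from 100 µM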
Ecoli rRNA inh OD600 – further read-out of Ecoli rRNA inh, marked with its call; OD600 change, %; measured here: OD600 growth;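 optical density of the mix in the first replicate; 0 = DMSO median and -100 = no signal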
Ecoli rRNA inh RFP – also measured in Ecoli rRNA inh; calls as there; RFP signal change, %; measured here: RFP humanized mutant strains;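 first replicate; 0 = DMSO median and -100 = no signal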
Active calls of the source: *; & = joins results of further samples.

What do the screens show for `Cc1cc(C)c(NC(=O)CS(=O)CC(=O)Nc2ccc(N3CCOCC3)cc2)c(C)c1` (stereo not given)?
Ecoli rRNA inh: 3; Beta apoptosis: -3; Bfl-1 A1 inh: 1.0; RanGTP-Impb inh: 0.1; T cruzi inh: -4; Calb FLC: -10; MLL AF4-AF9 inh: 1.5; Ecoli rRNA inh OD600: 5; Ecoli rRNA inh RFP: -2.1

What do the screens show for `Cc1cccc(N2CCN(c3ccc(C(N)=O)cc3[N+](=O)[O-])CC2)c1C`?
Ecoli rRNA inh: 17; Beta apoptosis: 4; Bfl-1 A1 inh: -0.8; RanGTP-Impb inh: -1.4; T cruzi inh: -10; Calb FLC: 1; MLL AF4-AF9 inh: -0.9; Vif A3G: -8%; Ecoli rRNA inh OD600: 17; Ecoli rRNA inh RFP: 3.0

Results for O=C(CN1C(=O)c2ccccc2C1=O)Nc1nc(-c2cccc([N+](=O)[O-])c2)cs1 ?
Ecoli rRNA inh: 20; Beta apoptosis: 2; Bfl-1 A1 inh: 0.7; RanGTP-Impb inh: 3.8; T cruzi inh: -22; Calb FLC: -11; MLL AF4-AF9 inh: 0.2; Vif A3G: -8%; Ecoli rRNA inh OD600: 22; Ecoli rRNA inh RFP: -6.3

Results for CC(=O)Nc1cc(NC(C)=O)c(CC(C)C)s1 ?
Beta apoptosis: 5; Bfl-1 A1 inh: -0.4; RanGTP-Impb inh: 0.7; T cruzi inh: -13; Calb FLC: 4; Vif A3G: 0%

What do the screens show for `COc1ccc(/C=C/C(=O)OCC(=O)Nc2ccc(S(N)(=O)=O)cc2)cc1OC`?
Ecoli rRNA inh: -3; Beta apoptosis: -3; Bfl-1 A1 inh: 0.2; RanGTP-Impb inh: -3.9; T cruzi inh: -7; Calb FLC: 15; MLL AF4-AF9 inh: -6.5; Vif A3G: -5%; Ecoli rRNA inh OD600: 0; Ecoli rRNA inh RFP: 0.0

What do the screens show for `c1ccc(-n2ncc3c(NCC4CCCO4)ncnc32)cc1` (stereo not given)?
Beta apoptosis: 4; Bfl-1 A1 inh: -0.2; RanGTP-Impb inh: -3.4; T cruzi inh: -10; Calb FLC: -4; Vif A3G: 4%

What do the screens show for `CSCCC(NC(=O)C12CC3CC(CC(C3)C1)C2)C(=O)OCC(=O)c1ccc(C)cc1` (stereo not given)?
Beta apoptosis: -2; Bfl-1 A1 inh: 0.5; RanGTP-Impb inh: -2.0; T cruzi inh: -20; Calb FLC: 2; MLL AF4-AF9 inh: -0.8; Vif A3G: -2%

Results for Cc1ccccc1-n1c(-c2csc(C)c2C)n[nH]c1=S ?
Bfl-1 A1 inh: 0.4; RanGTP-Impb inh: 4.1; T cruzi inh: -6; Calb FLC: 20

How did CC(=O)Oc1ccc(/C=C2/C(=O)N(c3ccccc3)N=C2C)cc1 do in these assays?
Ecoli rRNA inh: 20; Beta apoptosis: -3; Bfl-1 A1 inh: 0.5; RanGTP-Impb inh: -1.6; T cruzi inh: -5; Calb FLC: -3; MLL AF4-AF9 inh: -0.7; Vif A3G: -2%; Ecoli rRNA inh OD600: 11; Ecoli rRNA inh RFP: -1.6

Results for COc1cc(/C=C/c2nc3ccccc3c(=O)[nH]2)cc(Cl)c1O ?
Ecoli rRNA inh: 9; Beta apoptosis: -4; Bfl-1 A1 inh: -4.5; RanGTP-Impb inh: -0.8; T cruzi inh: -14; Calb FLC: 4; MLL AF4-AF9 inh: -0.7; Ecoli rRNA inh OD600: 10; Ecoli rRNA inh RFP: -0.1

How did COC(=O)c1ccc(/C=N\NC(=O)CC(=O)NCCc2ccccc2)cc1 do in these assays?
Ecoli rRNA inh: 6; Beta apoptosis: -6; Bfl-1 A1 inh: 1.8; RanGTP-Impb inh: 0.1; T cruzi inh: 4; Calb FLC: 35; MLL AF4-AF9 inh: 1.5; Vif A3G: -3%; Ecoli rRNA inh OD600: 15; Ecoli rRNA inh RFP: 2.7

Results for CCCOC(=O)c1ccc(O)c(OC)c1 ?
Ecoli rRNA inh: -1; Beta apoptosis: -8; Bfl-1 A1 inh: -0.2; RanGTP-Impb inh: -3.3; T cruzi inh: -12; Calb FLC: 3; MLL AF4-AF9 inh: -0.2; Ecoli rRNA inh OD600: -2; Ecoli rRNA inh RFP: -2.5

Results for COc1cc(C)nc(Oc2ccc(OCCOc3ccccc3)nn2)n1 ?
Ecoli rRNA inh: -5; Beta apoptosis: 1; Bfl-1 A1 inh: -0.6; RanGTP-Impb inh: 1.6; T cruzi inh: 9; Calb FLC: 11; MLL AF4-AF9 inh: 0.3; Vif A3G: 17%; Ecoli rRNA inh OD600: -2; Ecoli rRNA inh RFP: -1.4

What do the screens show for `COc1ccc(Cn2c(C)c(C)c(C#N)c2NC(=O)Nc2cccc(C)c2)cc1`?
Beta apoptosis: -6; Bfl-1 A1 inh: 0.2; RanGTP-Impb inh: -4.7; T cruzi inh: -13; Calb FLC: -2; Vif A3G: -2%

Results for Cc1ccccc1OCC(=O)NN1CCN(C)CC1 ?
Ecoli rRNA inh: 12; Beta apoptosis: -2; Bfl-1 A1 inh: 0.6; RanGTP-Impb inh: -1.3; T cruzi inh: -4; Calb FLC: 2; MLL AF4-AF9 inh: -56; Ecoli rRNA inh OD600: 4; Ecoli rRNA inh RFP: -5.1

What do the screens show for `COCCN(CC(=O)Nc1cccc(C)c1C)C(=O)c1cc(-c2cccs2)nn1-c1ccccc1`?
Ecoli rRNA inh: 0; Beta apoptosis: 2; Bfl-1 A1 inh: 0.3; MLL AF4-AF9 inh: 0.7; Vif A3G: -4%; Ecoli rRNA inh OD600: 8; Ecoli rRNA inh RFP: 0.8

What do the screens show for `Cc1cccc(N2CCN(C(=O)c3ccccc3NC(=O)C3=CSCCO3)CC2C)c1` (stereo not given)?
Ecoli rRNA inh: 2; Bfl-1 A1 inh: 0.1; RanGTP-Impb inh: -0.5; T cruzi inh: -5; Calb FLC: 15; MLL AF4-AF9 inh: 10; Vif A3G: 1%; Ecoli rRNA inh OD600: -15; Ecoli rRNA inh RFP: 7.7

How did CC(C)c1ccc(NC2CCCN(C(=O)c3cnn(C(C)C)c3)C2)cc1 (stereo not given) do in these assays?
Ecoli rRNA inh: -4; Beta apoptosis: 4; Bfl-1 A1 inh: -0.2; RanGTP-Impb inh: -0.8; T cruzi inh: 10; Calb FLC: -21; MLL AF4-AF9 inh: 2.5; Vif A3G: 0%; Ecoli rRNA inh OD600: -11; Ecoli rRNA inh RFP: 1.0

How did Cc1cccc2c(N=O)c(O)n(CCc3ccccc3)c12 do in these assays?
Ecoli rRNA inh: -24; Beta apoptosis: 3; Bfl-1 A1 inh: -1.1; RanGTP-Impb inh: -0.7; T cruzi inh: -14; Calb FLC: 1; MLL AF4-AF9 inh: 7.2; Vif A3G: 5%; Ecoli rRNA inh OD600: -32; Ecoli rRNA inh RFP: -4.5

How did COc1cnc(SCCC(F)=C(F)F)[nH]c1=O do in these assays?
Ecoli rRNA inh: 4; Beta apoptosis: -14; Bfl-1 A1 inh: 0.4; RanGTP-Impb inh: 1.7; T cruzi inh: -6; Calb FLC: -13; MLL AF4-AF9 inh: -2.2; Vif A3G: 5%; Ecoli rRNA inh OD600: 7; Ecoli rRNA inh RFP: -0.1

Results for O=C1C=C(c2cccc(OCc3ccccc3)c2)C[C@@H](c2ccc3c(c2)OCO3)C1 ?
Ecoli rRNA inh: 14; Beta apoptosis: 0; Bfl-1 A1 inh: 0.7; MLL AF4-AF9 inh: -73; Ecoli rRNA inh OD600: 8; Ecoli rRNA inh RFP: -0.8

How did C=CC[C@@H](CC(=O)N[C@@H](CO)Cc1ccccc1)C(=O)NCCOC(=O)[C@@H](CC=C)CC(=O)OC(C)(C)C do in these assays?
Ecoli rRNA inh: -5; Beta apoptosis: 2; Bfl-1 A1 inh: 0.5; MLL AF4-AF9 inh: 0.3; Ecoli rRNA inh OD600: -11; Ecoli rRNA inh RFP: 2.3

How did Cc1cc(Cl)ccc1OCCCC(=O)N/N=C/c1cccc([N+](=O)[O-])c1 do in these assays?
Bfl-1 A1 inh: 0.1; RanGTP-Impb inh: inconclusive; T cruzi inh: -7; Calb FLC: -11; Vif A3G: -2%

How did CCc1cccc(OCC(=O)Nc2ccc(C)c(S(=O)(=O)N3CCCCCC3)c2)c1 do in these assays?
Ecoli rRNA inh: -1; Beta apoptosis: -10; Bfl-1 A1 inh: 0.1; RanGTP-Impb inh: 3.8; T cruzi inh: 21; Calb FLC: -1; MLL AF4-AF9 inh: -4.4; Vif A3G: 3%; Ecoli rRNA inh OD600: 2; Ecoli rRNA inh RFP: 4.9

Results for COc1cc(OC)c(N(C)S(=O)(=O)c2cccc(C(=O)NC3=NCCS3)c2)cc1Cl ?
Ecoli rRNA inh: -23*; Beta apoptosis: 5; Bfl-1 A1 inh: -1.6; RanGTP-Impb inh: -1.9; T cruzi inh: 9; Calb FLC: 2; MLL AF4-AF9 inh: -0.4; Vif A3G: 6%; Ecoli rRNA inh OD600: -18*; Ecoli rRNA inh RFP: 2.5*

How did CC(=O)c1cccc(-n2c(CCC(=O)O)ccc2-c2ccccc2)c1 do in these assays?
Ecoli rRNA inh: -6; Beta apoptosis: 2; Bfl-1 A1 inh: 0.0; RanGTP-Impb inh: -11; T cruzi inh: 2; Calb FLC: 15; MLL AF4-AF9 inh: 1.0; Vif A3G: -10%; Ecoli rRNA inh OD600: 1; Ecoli rRNA inh RFP: 2.9

What do the screens show for `C[C@@H]1CN([C@@H](C)CO)C(=O)c2cc(NC(=O)Nc3ccc4c(c3)OCO4)ccc2O[C@H]1CN(C)S(=O)(=O)c1ccc(F)cc1`?
Ecoli rRNA inh: -5&-9; Beta apoptosis: -2; Bfl-1 A1 inh: 0.4; MLL AF4-AF9 inh: 5.7&10; Ecoli rRNA inh OD600: -15&-9; Ecoli rRNA inh RFP: 3.9&-4.7

How did O=C(NC(=S)Nc1ccccc1N1CCCCC1)c1ccc(F)cc1Cl do in these assays?
Ecoli rRNA inh: 10; Beta apoptosis: 19; Bfl-1 A1 inh: 0.5; T cruzi inh: 37; MLL AF4-AF9 inh: 0.3; Ecoli rRNA inh OD600: 15; Ecoli rRNA inh RFP: 2.0

How did O=C(O)c1cccc(N2C(=O)c3cccc4cccc(c34)C2=O)c1 do in these assays?
Ecoli rRNA inh: -17; Beta apoptosis: 0; Bfl-1 A1 inh: -1.4; RanGTP-Impb inh: -6.9; T cruzi inh: 1; Calb FLC: -8; MLL AF4-AF9 inh: -5.1; Ecoli rRNA inh OD600: -17; Ecoli rRNA inh RFP: -3.1

How did CSc1ccc(CN(C)CC(=O)Nc2ccc(C)cc2Br)cc1 do in these assays?
Beta apoptosis: -7; Bfl-1 A1 inh: 0.5; RanGTP-Impb inh: 0.1; T cruzi inh: 38; Calb FLC: 5; Vif A3G: -2%

Results for COc1ccc(C(=O)NC2CCC(O)CC2)cc1S(=O)(=O)NCc1ccc(Cl)cc1 (stereo not given) ?
Ecoli rRNA inh: 11; Beta apoptosis: -2; Bfl-1 A1 inh: 0.6; MLL AF4-AF9 inh: -0.3; Vif A3G: -1%; Ecoli rRNA inh OD600: 10; Ecoli rRNA inh RFP: 2.1

These rows are one share of the data; count on the stated rates, not on these rows.
